# DUX4 txn inh – inhibitors of DUX4-driven ZSCAN4 reporter expression, primary screen, 293T cells, Gaussia and Italica luciferase | 293T-iDUX4 ZSCAN4-Gaussia luciferase reporter, 24 h; hits give low values | activity change, negative = inhibition, % (no concentration beside the values) | 0.8% of 37,000 active;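 active = -10% or lower and over 25 points stronger than a control reporter; inconclusive = -10% or lower with a smaller gap; inactive = above -10%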;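 also: 0% = median of neutral control wells and -100% = median of positive control wells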
# DUX4 txn inh difference – recorded beside DUX4 txn inh, whose call it bears; Gaussia minus Italica difference, %; measured here: selective DUX4 reporter inhibition;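 worked out from the two reporters; negative = selective loss of the DUX4 reporter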
# DUX4 txn inh control – recorded beside DUX4 txn inh, whose call it bears; activity change, negative = inhibition, %; measured here: Italica tet-on control reporter;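 0 = neutral control and -100 = positive control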
# Numbers without * were called inactive; ? = inconclusive; . = not tested or not shown; & = joins results of further samples. This is a subset; count on the stated rates, not on these rows.
DUX4 txn inh	DUX4 txn inh difference	DUX4 txn inh control	SMILES
-1	-3	2.2	COc1ccccc1CNC(=O)C[C@H]1CC[C@@H]2[C@@H](COc3ccc(NC(=O)Nc4ccc(F)c(F)c4)cc3C(=O)N2C)O1
?	.	.	O=C(C1CC1)N1CCCCN2[C@H](CO)[C@H](c3ccc(C#CC4CCCC4)cc3)[C@@H]2C1
3	1	2.4	COc1ccc(S(=O)(=O)Nc2ccc3c(c2)CC(=O)N([C@@H](C)CO)C[C@@H](C)[C@@H](CN(C)Cc2ccc(C(=O)Nc4ccccc4N)cc2)O3)cc1
-5	-4	-1.2	COc1cccc(S(=O)(=O)N(C)C[C@H]2OCc3cnnn3CCCC(=O)N([C@@H](C)CO)C[C@@H]2C)c1
-5	1	-5.5	CNC(=O)C[C@@H]1CC[C@H]2[C@@H](COc3ccc(NC(=O)NC(C)C)cc3C(=O)N2C)O1
2	-3	5.4	CCNC(=O)Nc1ccc2c(c1)C(=O)N(C)[C@H]1CC[C@@H](CC(=O)NCCN3CCCC3)O[C@H]1CO2
0	-1	0.7	O=C1N[C@H](c2ccccc2)COCc2cnnn2CC[C@@H]1Cc1ccc(C(F)(F)F)cc1
?	.	.	O=C(Nc1ccc2c(c1)[C@@H]1C[C@H](CC(=O)N3CCc4ccccc4C3)O[C@H](CO)[C@@H]1O2)Nc1ccccc1F
-4	13	-17	O=C(Nc1ccc(F)cc1)N1CC(=O)N2[C@H](CO)[C@@H](c3ccc(C#Cc4ccccc4)cc3)[C@H]2C1
2	4	-2.1	Cc1ccc(-c2ccc([C@H]3[C@H](CO)N4C(=O)CN(C(=O)c5cccnc5)C[C@@H]34)cc2)cc1
8	8	-0.1	COc1cccc(-c2ccc3n(c2=O)C[C@@H]2[C@@H](CO)[C@H](C(=O)N4CCCCC4)N(C)[C@H]32)c1
-6	-2	-3.4	O=C(C[C@@H]1CC[C@H]2[C@@H](COC[C@@H](O)CN2Cc2ccccc2F)O1)N[C@@H]1CCN(Cc2ccccc2)C1
5	-7	11	CC(C)CC#Cc1ccc([C@H]2[C@@H](CO)N3C(=O)CN(C(=O)c4cnccn4)C[C@H]23)cc1
0	-2	2.6	O=C(C[C@@H]1CC[C@H]2[C@@H](COC[C@H](O)CN2S(=O)(=O)c2ccccc2)O1)N1CCOCC1
2	2	0.4	CO[C@H]1CN(C)C(=O)c2ccc(NC(=O)NC(C)C)cc2OC[C@@H](C)N(Cc2cocn2)C[C@H]1C
-6	-4	-1.9	CN(C[C@H]1[C@@H](c2ccc(C3=CCCC3)cc2)[C@@H](CO)N1CCC(F)(F)F)S(C)(=O)=O
4	-4	7.4	COc1ccccc1CNC(=O)C[C@H]1CC[C@@H]2[C@H](COC[C@H](O)CN2C(=O)Nc2ccc(F)cc2)O1
-2	-2	-0.9	C/C=C/c1ccc([C@H]2[C@@H](CNC(C)=O)N(C(=O)Cc3ccncc3)[C@H]2CO)cc1
?	.	.	COc1cc(CN2CC3(CN(S(=O)(=O)c4cccs4)C3)c3c(n(C)c4cc(OC)ccc34)[C@H]2CO)cc(OC)c1
2	-8	10	O=C(C[C@H]1CC[C@H]2[C@@H](COC[C@H](O)CN2C(=O)c2ccncc2)O1)NC1CCC1
15	4	11	O=C(C[C@@H]1CC[C@H]2[C@@H](COC[C@@H](O)CN2Cc2ccccc2)O1)NCCCN1CCOCC1
1	7	-5.9	Cc1ccc(S(=O)(=O)N[C@H]2C=C[C@@H](CC(=O)NC3CCCCC3)O[C@H]2CO)cc1
-1&14	-13&13	12&1.9	O=C(Nc1cccc(Cl)c1)N1[C@@H]2CNC[C@H]1C2c1ccc(/C=C/c2ccccc2)cc1 (some centres not stated)
10	6	3.8	O=C(C[C@H]1C[C@@H]2c3cc(NC(=O)c4ccc5c(c4)OCO5)ccc3O[C@@H]2[C@H](CO)O1)NCC1CC1
-1	-5	3.5	CCC(=O)N1[C@H](CO)[C@@H](c2ccc(-c3ccccc3C)cc2)C12CN(C(C)=O)C2

# Profiles, quoted from the list. Values in the order: DUX4 txn inh, DUX4 txn inh difference, DUX4 txn inh control
# `COc1ccc(S(=O)(=O)Nc2ccc3c(c2)CC(=O)N([C@@H](C)CO)C[C@@H](C)[C@@H](CN(C)Cc2ccc(C(=O)Nc4ccccc4N)cc2)O3)cc1` across the screens: 3, 1, 2.4
# `COc1cc(CN2CC3(CN(S(=O)(=O)c4cccs4)C3)c3c(n(C)c4cc(OC)ccc34)[C@H]2CO)cc(OC)c1` across the screens: ?, ., .

# Next section:
DUX4 txn inh	DUX4 txn inh difference	DUX4 txn inh control	SMILES
-2	4	-6.2	CNC[C@@H]1Oc2c(NS(=O)(=O)c3cn(C)cn3)cccc2C(=O)N([C@@H](C)CO)C[C@H]1C
-2	-1	-0.1	CNC[C@@H]1Oc2ncc(Br)cc2C(=O)N([C@H](C)CO)C[C@H]1C
-2	-2	-0.7	C[C@H](CO)N1C[C@H](C)[C@H](CN(C)C(=O)Cc2cccnc2)Oc2ncc(Br)cc2C1=O
?	.	.	C[C@H]1CN([C@@H](C)CO)C(=O)c2c(c3ccccc3n2C)-c2ccccc2CO[C@@H]1CN(C)Cc1cccc(C(F)(F)F)c1
5	5	0.4	C[C@@H]1CN([C@@H](C)CO)C(=O)c2cc(N(C)C)ccc2O[C@@H](C)CCCCO[C@@H]1CN(C)C(=O)Nc1ccc(C(F)(F)F)cc1
4	2	2.2	COc1cccc(C(=O)Nc2ccc3c(c2)C(=O)N(C)[C@@H]2CC[C@H](CC(=O)N[C@@H](C)c4ccccc4)O[C@@H]2CO3)c1
12	9	3.4	O=C(C[C@H]1CC[C@@H]2[C@H](COC[C@H](O)CN2C(=O)c2ccc(F)cc2)O1)NCCCN1CCOCC1
9	8	1.1	O=C(C[C@@H]1CC[C@@H]2[C@H](COC[C@@H](O)CN2Cc2cccc(C(F)(F)F)c2)O1)NCCc1ccncc1
8	9	-1.1	CO[C@@H]1CN(C)C(=O)c2cc(NC(=O)c3cccc(F)c3)ccc2OC[C@H](C)N(C)C[C@@H]1C
3	-3	5.6	Cc1noc(C)c1NC(=O)N1C[C@H](O)COC[C@@H]2O[C@@H](CC(=O)NCC3CC3)CC[C@H]21
4	6	-1.8	O=C(C[C@H]1CC[C@@H]2[C@H](COC[C@@H](O)CN2C(=O)Cc2ccccc2)O1)NC1Cc2ccccc2C1
-1	-1	0.6	CC(=O)N1[C@H](CO)[C@H](c2ccc(-c3ccccc3)cc2)[C@@H]1CNC(=O)NC(C)C
-2	0	-1.8	O=C(C[C@@H]1CC[C@H]2[C@@H](COC[C@H](O)CN2Cc2cccc(C(F)(F)F)c2)O1)NCCc1ccncc1
-2	1	-2.8	COc1ccc(NC(=O)Nc2ccc3c(c2)C(=O)N([C@H](C)CO)C[C@H](C)[C@H](CN(C)S(=O)(=O)c2cccs2)OCCCC[C@H](C)O3)cc1
4	3	1.4	O=C(C[C@@H]1CC[C@@H]2[C@H](COC[C@@H](O)CN2Cc2ccccc2F)O1)NC1CCC1
?	.	.	OC[C@@H]1Nc2ccc(-c3ccc(F)cc3)cc2[C@@H]2[C@H]1CCN2Cc1ccc(F)cc1
1	-17	18	COCC(=O)N1CC2(CN(C(C)=O)C2)c2c([nH]c3cc(OC)ccc23)[C@@H]1CO
17	7	11	CC(=O)N1CC(=O)N2[C@H](CO)[C@H](c3ccc(-c4ccc(C)cc4)cc3)[C@@H]2C1
9	10	-1.2	CCCN(C)C[C@H]1OCCCC[C@@H](C)Oc2ccc(NC(=O)CCCN(C)C)cc2C(=O)N([C@H](C)CO)C[C@@H]1C
4	6	-1.7	Cc1ccc(S(=O)(=O)N[C@H]2C=C[C@@H](CC(=O)NCCCN(C)C)O[C@H]2CO)cc1
-6	-2	-3.7	Cc1cccc(S(=O)(=O)N(C)C[C@@H]2OCc3cn(nn3)CCCC(=O)N([C@H](C)CO)C[C@@H]2C)c1
?	.	.	CN1CCN(C(=O)C[C@@H]2CC[C@H]3[C@@H](COC[C@H](O)CN3Cc3ccc(Oc4ccccc4)cc3)O2)CC1
21	16	4.9	COc1ccc2c3c([nH]c2c1)[C@@H](CO)N(C(=O)Nc1ccc(F)cc1)CC31CCN(C(=O)Cc2ccncc2)CC1
-4	-4	0.2	CC(C)NC(=O)N(C)C[C@H]1OCc2cn(nn2)CCCC(=O)N([C@H](C)CO)C[C@@H]1C
4	4	-0.9	CN(C)C(=O)C[C@@H]1CC[C@H]2[C@@H](COC[C@H](O)CN2CC2CCCCC2)O1
2	0	2.4	COc1ccc(NC(=O)Nc2cccc3c2O[C@@H](CN(C)C(=O)NC2CCCCC2)[C@H](C)CN([C@H](C)CO)C3=O)cc1
-1	-3	1.4	CN1C(=O)c2cc(NC(=O)c3cccs3)ccc2OC[C@@H]2O[C@@H](CC(=O)NCCN3CCCCC3)CC[C@@H]21
6	2	4.0	CO[C@H]1CN(C)C(=O)c2ccc(NS(C)(=O)=O)cc2OC[C@@H](C)N(C(=O)C2CCCCC2)C[C@@H]1C
-7	1	-7.3	C[C@H]1CN([C@@H](C)CO)C(=O)CCCn2cc(nn2)CO[C@H]1CN(C)C(=O)Nc1cccc(F)c1
8	5	3.1	O=C(C[C@H]1CC[C@H](NS(=O)(=O)c2ccc(F)cc2)[C@H](CO)O1)NC1CCCCC1
3	4	-1.3	CC(C)CC#Cc1ccc([C@@H]2[C@@H](CO)N3CCCCN(C(=O)Nc4ccccc4)C[C@H]23)cc1
12	11	0.3	O=C(C[C@@H]1CC[C@@H]2[C@H](COC[C@@H](O)CN2C(=O)c2ccccc2)O1)Nc1ccccc1
4	6	-1.9	Cc1ccccc1-c1ccc2c(c1)O[C@H](CN(C)C(=O)Nc1ccc(C(F)(F)F)cc1)[C@@H](C)CN([C@H](C)CO)S2(=O)=O
1	5	-3.5	CCCC(=O)Nc1ccc2c(c1)C(=O)N(C)[C@H]1CC[C@@H](CC(=O)OC)O[C@@H]1CO2
-10	2	-12	COc1ccc(-c2ccccc2[C@@H]2[C@@H](C#N)N(C(=O)C3CCC3)[C@H]2CO)cc1
-1	-1	0.1	OC[C@@H]1[C@H]2c3ccccc3NC[C@H]2N1Cc1ccccc1Cl
4	-2	6.5	O=C(Cc1cccnc1)N1CC2(C1)[C@@H](c1ccccc1)[C@@H](CO)N2C(=O)C1CCC1
10	14	-3.5	CCNC(=O)[C@@H]1[C@@H](CO)[C@@H]2Cn3c(ccc(-c4ccccc4)c3=O)[C@@H]2N1C(=O)Cc1cccnc1
16	7	8.4	COCC#Cc1ccc([C@@H]2[C@H]3CN(C(=O)c4cccnc4)CC(=O)N3[C@H]2CO)cc1
14	7	7.1	CCCC(=O)N1CC2(CCN(Cc3nccs3)CC2)c2c([nH]c3cc(OC)ccc23)[C@H]1CO
0	-4	3.6	CO[C@H]1CC[C@H]2CCN(C)C(=O)CCCN(C)C(=O)c3cc(C#N)ccc3OC[C@H]1O2
3	5	-2.4	COc1ccc(NC(=O)N2CCCCN3[C@H](CO)[C@H](c4ccc(C#Cc5ccccn5)cc4)[C@H]3C2)cc1
-2	-1	-0.8	O=C(NC1CCCCC1)N[C@H]1CC[C@H](CC(=O)N2CCOCC2)O[C@@H]1CO
20	26	-6.6	CS(=O)(=O)N1CCCCN2[C@@H](CO)[C@H](c3ccc(Br)cc3)[C@@H]2C1
?	.	.	C[C@H]1CN([C@@H](C)CO)C(=O)c2c(c3ccccc3n2C)-c2ccccc2CO[C@H]1CN(C)C(=O)Nc1ccc(F)cc1
-4	-2	-1.6	CC=Cc1ccc2n(c1=O)C[C@@H]1[C@@H](CO)[C@H](C(=O)N(C)C)[C@H]2N1Cc1cc(F)ccc1F (mixture of isomers)
-2	0	-1.8	CN1C(=O)c2cc(NC(=O)Cc3cccs3)ccc2OC[C@H]2O[C@H](CC(=O)N[C@@H]3CCN(Cc4ccccc4)C3)CC[C@@H]21
-1	-5	4.7	C[C@@H]1CN([C@@H](C)CO)C(=O)c2cc(C#CC3CCCC3)cnc2O[C@@H]1CN(C)C(=O)Cc1ccccn1
?	.	.	CO[C@@H]1CN(C)C(=O)c2ccc(NC(=O)Nc3ccc(C(F)(F)F)cc3)cc2OC[C@H](C)NC[C@@H]1C
-3	-2	-1.5	CO[C@@H]1CN(C)C(=O)c2ccc(NC(=O)C3CCOCC3)cc2OC[C@@H](C)N(CC2CCCCC2)C[C@H]1C
?	.	.	COc1ccc(S(=O)(=O)N2CC[C@H]3[C@H](CO)Nc4ccc(-c5cccc(C#N)c5)cc4[C@H]32)cc1
?	.	.	CCN1[C@@H]2Cn3c(ccc(C4=CCCC4)c3=O)[C@H]1[C@@H](C(=O)N1CCc3ccccc3C1)[C@@H]2CO
2	2	-0.3	O=C(c1ccncc1)N1C[C@H]2[C@@H](c3ccccc31)[C@@H](CO)N2C(=O)c1ccccn1

# 7 entries drawn at random from those above, as already listed:
DUX4 txn inh	DUX4 txn inh difference	DUX4 txn inh control	SMILES
14	7	7.1	CCCC(=O)N1CC2(CCN(Cc3nccs3)CC2)c2c([nH]c3cc(OC)ccc23)[C@H]1CO
8	5	3.1	O=C(C[C@H]1CC[C@H](NS(=O)(=O)c2ccc(F)cc2)[C@H](CO)O1)NC1CCCCC1
-7	1	-7.3	C[C@H]1CN([C@@H](C)CO)C(=O)CCCn2cc(nn2)CO[C@H]1CN(C)C(=O)Nc1cccc(F)c1
?	.	.	COc1ccc(S(=O)(=O)N2CC[C@H]3[C@H](CO)Nc4ccc(-c5cccc(C#N)c5)cc4[C@H]32)cc1
4	-2	6.5	O=C(Cc1cccnc1)N1CC2(C1)[C@@H](c1ccccc1)[C@@H](CO)N2C(=O)C1CCC1
3	5	-2.4	COc1ccc(NC(=O)N2CCCCN3[C@H](CO)[C@H](c4ccc(C#Cc5ccccn5)cc4)[C@H]3C2)cc1
10	14	-3.5	CCNC(=O)[C@@H]1[C@@H](CO)[C@@H]2Cn3c(ccc(-c4ccccc4)c3=O)[C@@H]2N1C(=O)Cc1cccnc1

# Screens as filed in PubChem.
